# Beta apoptosis: blocks beta cell apoptosis; INS-1E cytokine-induced death, ATP luminescence, 48 h; percent of positive-control rescue, neutral wells zero; protection from apoptosis, % (test concentration not listed); 300,000 tested, 0.8% active; AID 435005;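 active = all replicates at 75% or more, or half of them and the mean; inconclusive = half reach 75% but not the mean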;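 also: 0% = cytokine-treated negative control wells and 100% = positive control rescue; higher means more ATP so stronger rescue from cytokine killing; wells of about 40 µL received 100 nL stock; the first replicate is given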
# UCH37 inh: inhibitors of human deubiquitinating enzyme UCH37; purified proteasome/UCH37, Ub-AMC cleavage fluorescence; inhibition, % (test concentration not listed); 330,000 tested, 0.33% active;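 active = mean of two replicates above 20%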;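 also: 0% = compound-free wells with enzyme and 100% = wells lacking proteasome; stock transfer was 100 nL into about 20 µL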
# Target sequence (Q9Y5K5 whole entry, looked up): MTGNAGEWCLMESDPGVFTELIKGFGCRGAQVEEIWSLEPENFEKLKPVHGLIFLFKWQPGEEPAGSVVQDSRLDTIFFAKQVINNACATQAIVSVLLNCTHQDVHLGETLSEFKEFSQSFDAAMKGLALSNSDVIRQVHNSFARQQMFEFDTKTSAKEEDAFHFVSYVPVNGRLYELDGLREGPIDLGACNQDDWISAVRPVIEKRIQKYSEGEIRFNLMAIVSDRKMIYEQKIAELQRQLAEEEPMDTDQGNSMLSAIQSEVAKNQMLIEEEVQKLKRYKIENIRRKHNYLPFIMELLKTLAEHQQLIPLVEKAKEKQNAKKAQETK
#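 assay system = human UCH37 enzyme supplied as purified proteasome complex | amount = proteasome at 0.15 nM in the dispensed enzyme solution | schedule = 30 min compound-proteasome preincubation then 25 min substrate reaction, room temperature | measured by = fluorescence, ex 355 nm, em 460 nm | benchmarks = no-proteasome wells (full inhibition) and compound-free wells (no inhibition)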
# AF4-AF9 inh: blocks AF4 peptide binding to human AF9; P42568; AlphaScreen, biotin-AF4 peptide binding to FLAG-AF9; inhibition, % at 10 µM; 350,000 tested, 0.47% active; AID 651704;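 active = every replicate reaching a set inhibition limit, whatever the replicate mean, cut at about 25% in these data; inconclusive = mean inhibition reaches that limit but some replicates miss it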;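 also: 0% = plate neutral control median and 100% = total signal loss; the record names both 10 and 1 µM as test concentration; the first replicate is given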
# Target sequence (P42568 whole entry, looked up): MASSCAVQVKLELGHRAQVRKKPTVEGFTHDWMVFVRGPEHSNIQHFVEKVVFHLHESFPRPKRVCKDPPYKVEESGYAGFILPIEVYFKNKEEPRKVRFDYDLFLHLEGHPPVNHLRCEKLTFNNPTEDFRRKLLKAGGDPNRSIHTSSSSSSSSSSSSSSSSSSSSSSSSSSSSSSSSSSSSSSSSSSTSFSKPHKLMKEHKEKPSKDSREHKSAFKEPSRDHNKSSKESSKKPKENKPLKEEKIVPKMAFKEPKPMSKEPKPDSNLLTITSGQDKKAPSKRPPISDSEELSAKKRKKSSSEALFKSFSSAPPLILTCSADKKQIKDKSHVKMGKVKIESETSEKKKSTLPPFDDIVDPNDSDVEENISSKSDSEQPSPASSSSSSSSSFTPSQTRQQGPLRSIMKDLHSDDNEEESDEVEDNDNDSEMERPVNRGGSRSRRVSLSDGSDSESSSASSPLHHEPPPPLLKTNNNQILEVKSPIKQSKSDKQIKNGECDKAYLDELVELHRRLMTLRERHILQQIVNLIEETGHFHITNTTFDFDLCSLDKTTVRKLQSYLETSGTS
# FGF22 binding: shifts melting point of recombinant human FGF22; Q9HCT0; recombinant FGF22 thermal shift, SYPRO orange fluorescence; percent of sucrose octasulfate shift, DMSO zero; calls only at 9.99 µM; 340,000 tested, 1.5% active; AID 651658;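 active = melting point raised past a set limit in the mean and every replicate; inconclusive = no clear call; three in four hits are not shown here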
# Target sequence (Q9HCT0 whole entry, looked up): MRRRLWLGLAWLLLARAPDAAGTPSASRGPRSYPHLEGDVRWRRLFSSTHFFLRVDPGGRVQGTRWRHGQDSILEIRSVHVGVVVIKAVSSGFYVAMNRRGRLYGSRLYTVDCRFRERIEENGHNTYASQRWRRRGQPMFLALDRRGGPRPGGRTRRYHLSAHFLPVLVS
# Ecoli rRNA inh: inhibitors of bacterial rRNA selective over humanized ribosomes | E. coli WT GFP vs humanized-ribosome RFP mutants, fluorescence, 24 h; stronger effect = lower value; DMSO median 0, no signal -100 | GFP signal change (wild-type ribosome), % (no concentration beside the values) | 350,000 tested, 1.6% active | AID 720706;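 active = significant combined selectivity score with lowered wild-type GFP, culture density cut under 30%, mutant RFP and density less affected; inactive = any of these conditions unmet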; also: one replicate is shown; some compounds called inactive have numbers as strong as hits
# A1 inh: inhibitors of the anti-apoptotic protein A1, read as caspase activation. MEF A1-2A-BIM cells, Caspase-Glo 3/7 luminescence, 3 h; percent of clofoctol response, vehicle zero. 330,000 tested, 0.066% active. caspase activation, % (test concentration not listed);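 active = over half of replicate activation scores above 10%, or exactly half above 10 with the replicate mean above 10; inconclusive = replicate mean below 10 yet half the replicates above 10; inactive = over half of replicates below 10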;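 also: wells of about 30 µL received 50 nL stock; many hits fall short of the cut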
# T cruzi inh: T. cruzi replication inhibition; 300,000 tested, 1.4% active; T. cruzi beta-gal in NIH3T3, luminescence, 90 h; inhibition, % (test concentration not listed);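 active = mean inhibition across valid replicates above about 55%, limit read from the data; inconclusive = mean below that limit but half or more replicates reach it; inactive = mean below it, under half of replicates reach it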;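 also: signal also drops with host cell toxicity which is not excluded here; 0% = plate median of DMSO wells and 100% = zero luminescence signal; higher percent means less beta-gal luminescence so fewer parasites; stock transfer was 50 nL into about 50 µL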
# Ecoli growth: blocks Escherichia coli growth | AID 1053175 | OD600 absorbance (no concentration beside the values) | 330,000 tested, 0.21% active | OD600, 23 h; stronger effect = lower value;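 active = OD600 absorbance below the run mean of sample wells minus 3.6 SD, in any replicate, cut at about 0.56 in these data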;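 also: stock transfer was 300 nL into about 60 µL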
# Ecoli rRNA inh OD600: second read-out of Ecoli rRNA inh, no call of its own (marks repeat the call); OD600 change, %; measured here: OD600 growth;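 optical density of the mix in the first replicate; 0 = DMSO median and -100 = no signal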
# Ecoli rRNA inh RFP: further read-out of Ecoli rRNA inh, marked with its call; RFP signal change, %; measured here: RFP humanized mutant strains;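 first replicate; 0 = DMSO median and -100 = no signal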
# Active calls of the source: *; i = inactive; ? = inconclusive; / = no result given. This is a subset; count on the stated rates, not on these rows.
SMILES,Beta apoptosis,UCH37 inh,AF4-AF9 inh,FGF22 binding,Ecoli rRNA inh,Ecoli rRNA inh OD600,Ecoli rRNA inh RFP,A1 inh,T cruzi inh,Ecoli growth
Cc1ccccc1NC(=O)CSc1nc2ccccc2c2nc(CCn3cncc3C)nn12,6.0,-0.5,6.5,i,-4.2,3.2,1.5,-0.1,-14.1,0.629
CCCN(CCC)c1ccc(C(O)c2nnc(-c3ccccc3)o2)cc1 (centres undefined),12.3,1.6,-2.0,i,8.6,-1.9,1.0,-0.3,29.2,0.726
COC(=O)C1CCN(C(=O)NC(C)(C)C)CC1,-4.4,0.6,/,/,/,/,/,0.1,-9.0,0.733
O=C(NCC1c2ccccc2CCN1C(=O)CN1CCOCC1)C1CCCCC1 (centres undefined),-4.8,0.3,/,/,/,/,/,0.4,-9.2,0.689
N#CC(C(=O)NCCc1ccccc1)c1nc2ccccc2nc1N1CCCCC1 (centres undefined),-6.9,-2.4,/,/,/,/,/,0.5,38.7,/
O=C(NC1CCCCCCC1)c1ccc(F)cc1,-3.7,4.7,-1.0,i,7.5,0.5,-2.9,-1.3,-6.4,0.644
Cc1ccc2cc(C#N)c(NCc3ccccc3)nc2c1,7.4,-19.4,-4.7,i,6.1,3.9,19.5,0.2,9.0,0.735
CCN(CC)S(=O)(=O)c1ccc(N2CCOCC2)c(NC(=O)C(C)Oc2ccc(F)cc2)c1 (centres undefined),-3.6,1.3,0.3,i,-21.4,-25.5,-1.6,-0.3,/,0.717
Cc1ccccc1NC(=O)CSc1nnc2ccc(-c3ccncc3)nn12,-9.4,4.0,1.9,i,-2.2,-1.5,-3.7,0.8,-0.6,0.687
O=C1OCC2=C1C(c1ccc(F)cc1)CC(=O)N2c1ccc(F)cc1 (centres undefined),-5.1,-3.3,/,/,/,/,/,-0.1,-7.2,0.699
CNCC(O)Cn1c2c(c3ccccc31)CCCC2 (centres undefined),-13.3,0.4,12.0,i,13.2,8.0,3.8,0.6,-1.9,0.667
O=C(CN1CCN(Cc2ccccc2)CC1)NCc1ccccc1Cl,6.6,1.0,2.3,i,4.0,8.6,-2.8,0.5,12.2,0.663
Cc1cc(C(F)(F)F)nn1Cc1n[nH]c(=S)n1-c1ccc(F)cc1,-5.3,4.9,/,/,/,/,/,0.0,-8.3,0.662
O=c1[nH]nc(-c2ccc(F)cc2)cc1Cc1ccc(F)cc1,-4.9,-2.9,0.1,i,8.5,10.2,3.5,0.3,-23.2,0.655
Cc1c(O)ccc(NS(=O)(=O)c2ccccc2)c1C,/,/,-0.5,/,2.8,-6.8,1.8,0.2,2.1,/
COc1ccc2c(c1OC)C(=O)N(c1cccc(C)c1)C2=O,-1.0,-18.4,/,/,/,/,/,0.8,-10.8,0.671
CC(=O)Oc1cccc(N2C(=O)C3C(C2=O)C2C=CC3C23CC3)c1 (centres undefined),/,2.7,/,/,/,/,/,0.6,-2.6,0.712
CCCCc1ccc(-c2csc(/C(C#N)=C\c3ccco3)n2)cc1,18.1,1.2,2.6,i,-0.7,-0.8,7.1,0.8,3.1,0.731
COC(=O)c1ccc(NS(=O)(=O)c2ccc3c(c2)n(C)c(=O)n3C)cc1,6.5,0.2,-1.1,i,-7.0,9.3,-1.3,0.3,-9.7,0.651
COc1ccc(C(=O)Nc2nncs2)cc1S(=O)(=O)N1CC(c2ccccc2)CC1=O (centres undefined),6.2,0.1,-1.2,i,-24.1,-27.4,-1.1,1.4,4.3,0.735
Oc1c(C(Nc2nc3ccccc3s2)c2ccco2)ccc2cccnc12 (centres undefined),103.3*,-1.7,/,/,/,/,/,-0.7,?,0.661
COc1ccc(-n2c(SCC(=O)Nc3nccs3)nnc2-c2ccoc2C)cc1,-5.4,-0.4,/,/,/,/,/,0.2,4.4,0.736
CC(=O)Nc1c(C(=O)O)[nH]c2ccccc12,-0.3,-1.1,/,/,/,/,/,0.4,-19.0,0.715
Cc1cc2nc(C3CCCN(C(=S)Nc4ccccc4)C3)[nH]c2cc1C (centres undefined),10.4,4.4,/,/,/,/,/,-0.8,27.2,0.736
CCOC(=O)c1ccc(NC(=O)CSc2nnc(COc3ccccc3OC)n2CC)cc1,-1.3,-0.9,/,/,/,/,/,-0.6,-0.3,0.781
CCC1CCc2sc(C(=O)N(C)CC(=O)Nc3cccc(OC)c3)cc2C1 (centres undefined),0.4,-0.3,-6.1,i,-18.6,-24.3,-1.6,0.1,/,0.709
COc1ccc(-c2cccc(NS(=O)(=O)c3cccc([N+](=O)[O-])c3)c2)nn1,0.0,1.1,0.2,i,3.2,-3.6,-1.2,-0.1,3.3,0.641
Cc1cccc(-n2cc(-c3ccccc3)[nH]c2=S)c1,2.9,0.9,0.0,i,2.4,-4.0,-2.0,-3.0,-1.9,0.667
Cc1ccc(Cn2c(=N)n(CC(=O)c3ccc([N+](=O)[O-])cc3)c3ccccc32)cc1,15.5,2.9,/,/,/,/,/,1.2,20.4,0.666
Cc1ccc(OCCC(=O)OCC(=O)Nc2ccc3[nH]c(=O)[nH]c3c2)cc1,-5.1,1.6,1.2,i,3.5,6.7,-1.6,-0.7,-7.5,0.718
O=C(NCCN1CCOC1=O)C1CCC(=O)N(CCc2ccc(Cl)cc2)C1 (centres undefined),/,-2.0,-7.6,i,1.2,7.0,-2.3,-0.2,-9.1,0.69
Fc1ccc(C2CCCN2Cc2nc(Cc3ccccc3)no2)cc1 (centres undefined),-0.6,0.8,-0.1,i,-6.0,-7.9,-5.7,-0.6,3.3,0.693
O=C(NCCN1CCOCC1)c1ccc2c(c1)N(Cc1ccccc1F)C(=O)CS2,/,1.0,/,/,/,/,/,0.8,-4.5,0.648
N#Cc1c(NC(=O)c2cnccn2)sc2c1CCCC2,0.3,8.7,0.9,i,/,/,/,0.3,-10.0,0.742
CC(C(=O)N1CCN(C(=O)c2ccco2)CC1)n1sc2ccccc2c1=O (centres undefined),-8.0,2.6,1.3,i,-1.1,-3.3,-2.6,0.3,10.8,0.702
O=C(COC(=O)c1ccc(Cl)nc1)NC(=O)c1ccc(OC(F)F)cc1,-0.5,1.6,-1.3,/,7.0,7.9,-0.9,0.0,0.9,0.638
O=C(COC(=O)Cc1c[nH]c2ccccc12)NC1CCS(=O)(=O)C1 (centres undefined),2.0,1.7,-2.2,i,5.1,8.9,2.8,-0.7,-10.1,0.666
O=C1CCCCC1(c1ccccc1)c1ccccc1,/,2.6,-4.3,i,-10.4,-46.2,-8.1,/,/,0.696
O=[N+]([O-])c1cn(-c2nc(-c3ccco3)cc(C(F)(F)F)n2)cn1,-1.7,1.7,/,/,/,/,/,-0.3,64.6*,0.786
CCN(CC(=O)Nc1ccc(NC(C)=O)cc1)C(=O)c1cccc(S(=O)(=O)N2CCCC2)c1,-2.5,1.1,-1.0,i,6.8,5.1,-3.8,0.0,3.5,0.703
COc1c(C(=O)Nc2c(C)n(C)n(-c3ccccc3)c2=O)ccc2ccccc12,-2.3,0.7,/,/,/,/,/,0.6,-2.0,0.689
Cc1ccc(-c2nc3ccccc3c(=O)n2N)cc1,-2.5,6.9,-5.4,i,-2.6,5.7,-1.2,0.6,-2.1,0.684
C=CCOc1ccc(CNc2ccc3[nH]c(=O)[nH]c3c2)cc1,0.1,-0.7,3.8,i,-14.3*,6.5*,-2.0*,1.0,-20.0,0.718
CN(C)C(CNC(=O)CNC(=O)c1ccc2ccccc2c1)c1ccccc1 (centres undefined),-7.3,1.4,0.0,i,6.3,13.2,0.4,-0.2,11.1,0.659
CC(=O)NS(=O)(=O)c1ccc(N=c2ssc3c2-c2cc(C)c(C)cc2NC3(C)C)cc1,-0.1,3.0,3.9,i,-4.7,-10.9,1.5,0.8,6.7,0.657
Cc1csc(NC(=O)c2cn3ccccc3n2)n1,31.8,2.3,-43.4,i,15.0,8.4,-3.3,-7.5,-3.5,0.611
CCc1ccc(-c2csc(NC(=O)C3=COCCO3)n2)cc1,11.5,2.5,0.4,i,-18.1,-41.3,-5.3,-6.3,/,0.648
O=[N+]([O-])c1cccc(-n2nnnc2CN2CCCCCC2)c1,-11.0,2.8,/,/,/,/,/,0.7,11.9,0.692
Cc1[nH]nc2c1C(c1cnn(C)c1)C(C#N)=C(N)O2 (centres undefined),-2.9,5.2,0.1,i,7.6,6.7,1.4,0.7,2.8,0.715
O=Cc1cn(CCC(=O)O)nc1-c1cccc2ccccc12,/,0.3,-4.7,i,22.5,8.8,0.3,1.1,-9.7,0.721
COC(=O)c1cc(C#N)c(Oc2ccc(OC)cc2)nc1C,0.9,1.0,/,/,/,/,/,0.7,4.9,0.696
COCCCNC(=O)CN(Cc1ccccc1)S(=O)(=O)c1ccccc1,-3.5,0.1,0.0,i,5.5,2.7,4.5,0.5,9.4,0.645
CCCCCCC[C@@H](C/C=C/CCC(=O)O)OC,/,0.2,2.4,i,-2.5,-2.1,-0.5,/,/,0.699
Cc1cc(C)nc(N2C(=O)CC(Cc3ccccc3)C2=O)n1 (centres undefined),-3.8,1.2,/,/,/,/,/,0.0,3.1,0.701
CC(=O)Nc1cccc(NC(=O)CSc2nc3ccccc3o2)c1,-4.6,7.0,-1.7,i,/,/,/,-0.5,-9.1,0.695
Cc1ccc(C(=O)Nc2ccc(S(=O)(=O)NCc3ccco3)cc2)cc1,0.3,-0.3,/,/,/,/,/,0.2,-12.9,0.746
Cc1nn(Cc2ccccc2)c(Cl)c1/C=C/C(=O)OC(C(=O)NC(N)=O)C(C)C (centres undefined),-7.6,5.4,-9.7,i,7.0,1.7,12.4,1.1,14.2,0.701
C=CCNC1=C(Cl)C(=O)N(c2cccc(Cl)c2Cl)C1=O,-5.0,-25.3,/,/,/,/,/,-0.2,-1.2,0.753
CCCOc1ccc(/C(O)=C2/C(=O)C(=O)N(CCCOC)C2c2ccncc2)cc1 (centres undefined),2.9,3.7,/,/,/,/,/,-0.8,-13.4,0.75
O=C(CCN1CCCCC1)Nc1cccc(Cl)c1,4.2,2.1,/,/,/,/,/,0.6,-16.8,0.77

# Other entries follow:
SMILES,Beta apoptosis,UCH37 inh,AF4-AF9 inh,FGF22 binding,Ecoli rRNA inh,Ecoli rRNA inh OD600,Ecoli rRNA inh RFP,A1 inh,T cruzi inh,Ecoli growth
CCCCn1c(=N)n(CCOc2ccc(C)cc2)c2ccccc21,24.8,2.8,/,/,/,/,/,0.4,11.8,0.634
COc1ccc(NC(=O)c2ccc3ccccc3n2)cc1S(=O)(=O)Nc1ccccc1Cl,1.8,0.9,/,/,/,/,/,0.5,31.9,0.655
CCCc1cc(=O)[nH]c(SCC(=O)c2cc(C)n(CCC)c2C)n1,2.4,4.4,/,/,/,/,/,0.8,8.7,0.77
CC1CC(C)CN(c2oc(-c3ccco3)nc2C#N)C1 (centres undefined),0.9,-21.6,18.6,i,-5.5,-3.1,-4.5,-0.1,15.5,0.653
CCN(C(=O)COC(=O)CNC(=O)c1sc2ccccc2c1Cl)C1CCCCC1,-10.0,3.8,6.0,i,-6.9,-36.9,8.3,0.2,-1.6,0.728
CC(C)CN1CCC(=O)N(CCOc2ccccc2)CC1,-12.4,0.0,-2.1,i,15.7,13.4,0.9,0.3,20.2,0.631

# Screens as filed in PubChem BioAssay.
